Screening results deposited in PubChem by National Center for Advancing Translational Sciences (NCATS).
miR-21 FLuc: qHTS Assay for Modulators of miRNAs and/orActivators of miR-21 | HeLa miR-21 FLuc reporter, luciferase, 48 h | 340,000 tested, under 10 active | Potency, µM (highest dose often 38.3 µM), inactives show top-dose reporter change, positive = more light; active = well fitted rising curve with a large enough effect; inconclusive = small, poorly fitted or top-dose-only effect; inactive = no such curve, though single readings can be large or run the other way;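 also: % of control where 0% means no effect; miR-21 action dims this reporter so a rising signal means less miR-21 action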
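Luminescence from a firefly luciferase reporter carrying a miR-21 binding site downstream, stably expressed under a CMV promoter in HeLa cells that make miR-21 endogenously, reports miRNA modulation after 48 h compound exposure up to approximately 40uM final.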
* = called active by the depositor; ? = inconclusive. An excerpt (hit frequency here may not be typical).

miR-21 FLuc	SMILES
-7%	CCOC(=O)c1cc(-c2ccccc2)n(CC(=O)N(C)c2ccc(OC)cc2)c1C
-14%	CCCSc1nnc2n(-c3cccc(C)c3)c(=O)c3c4c(sc3n12)CCCC4
-7%	CCOC(=O)c1c(S(=O)(=O)N2CCC(C(=O)NCc3ccccc3Cl)CC2)c(C)n(C)c1C
-5%	COc1ccc(C2C=C(c3ccccc3)Nc3nc(NC(=O)/C=C/c4ccccc4)nn32)cc1 (stereo not drawn)
-22%	O=C(Cn1cc(SCc2c(F)cccc2Cl)c2ccccc21)N1CCCCC1
12%	Cc1cc(C)c2c(CC(=O)Nc3ccc(S(=O)(=O)N4CCCCC4)cc3)coc2c1
0%	Cc1oc2ncnc(N3CCOCC3)c2c1C(=O)NCc1ccccc1
1%	COc1ccc(CN(C(=O)Nc2cc(C)ccc2C)C2CCN(C(C)=O)CC2)cc1
7%	Cc1cc(C)cc(-n2ccn(CC(=O)Nc3cc(C)ccc3C)c(=O)c2=O)c1
2%	O=C(CCS(=O)(=O)c1nc(-c2ccc3c(c2)OCO3)cc(C(F)(F)F)n1)Nc1ccccc1F
-69%	COc1cccc2cc(-c3nnc(Nc4c(F)cccc4F)s3)c(=O)oc12
?	COc1cc(NS(=O)(=O)c2ccc3[nH]c4c(c3c2)CCCC4)cc(OC)c1OC
1%	COc1ccc(-c2cc(C(F)(F)F)nc(SCC(=O)NCCc3ccc(OC)c(OC)c3)n2)cc1
20%	Cc1cccc(N(C)C(=O)CSc2nc3ncccc3o2)c1
0%	COc1cccc(CNC(=O)CSc2nnc(C)c3c(C)n(-c4ccccc4)nc23)c1OC
-43%	CN(C)CCNc1ncnc2c1cnn2-c1cccc(Cl)c1
-28%	Cc1ccc2c(c1)c(=O)c(S(=O)(=O)c1ccc(F)cc1)cn2CC(=O)Nc1ccc2c(c1)OCO2
4%	Cn1nc(C(=O)NCc2ccccc2Cl)c2c1-c1ccccc1SC2
-3%	CCc1nnc(NC(=O)c2nc(S(C)(=O)=O)ncc2Cl)s1
-2%	Cc1ccc2oc(-c3cc(NC(=O)CC(C)C)ccc3Cl)nc2c1
0%	COc1cccc(C(=O)c2cn(CC(=O)Nc3cc(Cl)c(OC)cc3OC)c3nc(C)ccc3c2=O)c1
-9%	CCC(=O)N1CCc2cc(CNS(=O)(=O)c3ccc(CC(C)C)cc3)ccc21
15%	Cc1cccc(OCC(=O)NCc2ccc3c(c2)CCN3C(=O)c2ccccc2)c1
-63%	COc1ccc(NC(=O)CSc2nnc(NC(=O)Nc3ccc(OC)cc3)s2)cc1
-15%	CN1CCc2nc3sc(C(=O)c4ccc(F)cc4)c(N)c3cc2C1
0%	CCC(=O)N1c2ccccc2CC1C(=O)N1CCN(c2cccc(OC)c2)CC1 (stereo not drawn)
19%	Cc1ccc(C)c(N2CCN(c3nc4ccccc4n4c(C)nnc34)CC2)c1
-43%	COc1ccc(-c2nc(C)c(CCNC(=O)c3cccs3)s2)cc1OC
-1%	COc1ccc(C(=O)c2oc3ccccc3c2NC(=O)COc2cccc(C)c2)cc1
7%	CC1=C(C(=O)Nc2cccnc2)C(c2ccccc2)n2nc(-c3ccc(O)cc3)nc2N1 (stereo not drawn)
16%	Cc1ccccc1CNC(=O)c1ccc(-c2nc(CS(=O)(=O)c3ccccc3)c(C)o2)cc1
0%	Cc1cc(C)n(-c2nc3ccccc3nc2Nc2ccc(N(C)C)cc2)n1
14%	Cc1ccc(S(=O)(=O)N2CCc3cc(C(=O)N(C)Cc4ccccc4)ccc32)cc1
-2%	CCOc1ccccc1NC(=O)Cn1c(=O)n(Cc2ccccc2)c(=O)c2c(C)c(C)sc21
28%	CCn1c2ccccc2c2cc(CN3CCN(Cc4ccccc4F)CC3)ccc21
-49%	CCOCCSc1c(C)cnc2c1c(=O)n(C)c(=O)n2C
5%	COc1ccc(-c2noc(-c3ccc(NCc4cccnc4)c([N+](=O)[O-])c3)n2)cc1OC
0%	CCCn1cc(S(=O)(=O)c2ccc(CC)cc2)c(=O)c2cc(F)c(N3CCN(C)CC3)cc21
?	CCOC(=O)c1ccc(N2C(=O)c3n[nH]c(-c4cccs4)c3C2c2cccc(O)c2)cc1 (stereo not drawn)
4%	O=C(CCn1c(=O)c2cccn2c2ccc(F)cc21)NCCc1ccc(Cl)cc1
4%	CCc1ccc(-c2nc(CN3CCC(C(=O)NCCc4ccc(Cl)cc4)CC3)c(C)o2)cc1
?	O=C1CN(C(=O)COc2ccc(Cl)cc2)C(c2ccc(F)cc2)c2cc(Cl)ccc2N1 (stereo not drawn)
1%	COc1ccc(OC)c(NC(=O)CC(=O)Nc2ccc3nc4n(c(=O)c3c2)CCCCC4)c1
8%	COCCn1c(SCC(=O)Nc2ccc(Br)cc2)nc2c([nH]c3ccccc32)c1=O
-4%	Cc1c(C(=O)Nc2ccccc2Cl)oc2ccc(S(=O)(=O)N3CCCCCC3)cc12
-2%	O=c1c(-c2cc(-c3ccccc3)nc3c2COc2ccccc2-3)coc2ccc(Cl)cc12
17%	O=C(NCCc1csc(-c2ccc(F)cc2)n1)c1ccc(Br)o1
1%	Cc1oc2c(c1C(=O)Nc1cccc(Br)c1)C1=NCCN1C=N2
15%	COc1ccc(NC(=O)CN(C)S(=O)(=O)c2ccc3[nH]c4c(c3c2)CCCC4)cc1Cl
27%	O=C(Nc1ccc(F)cc1)Nc1ccc2snnc2c1

Additional compounds follow:
miR-21 FLuc	SMILES
28%	O=C1CC(c2c(F)cccc2Cl)c2c(ccc3ccccc23)N1 (stereo not drawn)
12%	CC(=O)N1CCc2cc(Br)cc(S(=O)(=O)N3CCC(C)CC3)c21
0%	COc1ccc(-c2c(C)c3ccc(O)c(CN4CCOCC4)c3oc2=O)cc1OC
?	Cc1cccc(N2CCN(C(=O)c3cnn(-c4ccccc4)c3C3CCN(C(=O)OC(C)(C)C)CC3)CC2)c1C
0%	O=C(O)c1ccc(Cn2c(SCc3ccc(F)cc3)nc3ccncc32)cc1
15%	COc1ccccc1NC(=O)c1oc2ccccc2c1NC(=O)c1cccc(OC)c1OC
3%	COc1ccc(CCNC(=O)C2CCCN(S(=O)(=O)c3ccc4c(c3)oc(=O)n4C)C2)cc1OC (stereo not drawn)
10%	O=C(NCCCc1nc2ccccc2n1Cc1ccc(Cl)cc1)C1CCCCC1
26%	CCCCNC(=O)c1ccc2c(c1)N(CC)C(=O)c1ccccc1S2
-1%	CCCCCNC(=O)C1CCC(Cn2c(=O)c3sccc3n(CC(=O)N3CCCC3)c2=O)CC1 (stereo not drawn)
-11%	Cn1nnc2c(N3CCCCC3)ncnc21
-4%	CN1C(=O)c2[nH]nc(-c3ccc(F)cc3)c2C1c1ccccn1 (stereo not drawn)
-76%	Cc1c(-c2nsc(NC(=O)c3cccs3)n2)nnn1-c1ccc(Cl)cc1
-7%	Cc1ccc(NC(=O)C2CCCN(c3cnccn3)C2)cc1Cl (stereo not drawn)
?	CCOC(=O)c1cc(-c2ccccc2)n(CCC(=O)Nc2ccc(C(F)(F)F)cc2)c1C
-25%	CCCCNC(=O)C1=CC(c2ccc3c(c2)OCO3)=NS(=O)(=O)N1C
-17%	CCOc1ccc2nc(N(Cc3cccnc3)C(=O)c3ccc4c(c3)OCCO4)sc2c1
-12%	CC(C)c1ccc(C2NC(=O)c3n[nH]c(-c4cccs4)c32)cc1 (stereo not drawn)
-8%	Cc1nn(C)c2c1c(C(F)(F)F)cc(=O)n2CC(=O)N1CCN(c2ccccc2F)CC1
?	O=C(COc1ccc(F)cc1)NCc1ccc2c(c1)CCN2C(=O)c1ccccc1
14%	O=C(CSC1=Nc2ccccc2C2=NC(Cc3ccccc3)C(=O)N12)Nc1cccc(Cl)c1 (stereo not drawn)
-23%	CCN(C(=O)Cn1c(SCc2ccccc2F)nc2cccnc21)c1ccccc1
-5%	Cn1c(=O)c2cc(C(=O)NCCCN3CCN(c4ccc(F)cc4)CC3)sc2c2ccccc21
-5%	Cc1ccc(CNC(=O)Cn2c(=O)cc(-c3ccccc3)c3c(C)nn(C)c32)cc1
22%	Cc1cc(-c2ccc(S(=O)(=O)Nc3ccccc3C)cc2)on1
-1%	Cn1cc(C(=O)N2CCN(c3cccc(Cl)c3)CC2)c(=O)c2cc(S(=O)(=O)N3CCCC3)ccc21
-6%	COc1ccc(Cl)cc1NC(=O)CSc1nc2c([nH]c3ccccc32)c(=O)n1-c1ccccc1
19%	Cc1ccc(-n2ncc3c(N4CCCCCC4)ncnc32)cc1C
9%	CC(C)c1ccc(Nc2ncnc3onc(-c4ccc(F)cc4)c23)cc1
6%	CCc1ccc(-c2nc3c(c(SCc4ccccc4)n2)Cc2c(CO)cnc(C)c2O3)cc1
-3%	COc1ccc(C2CC(=O)NC(NC(=O)c3ccc(Br)cc3)=N2)c(OC)c1OC (stereo not drawn)
0%	O=C(CCCCn1c(=O)c2ccccc2n(CC(=O)Nc2cccc(F)c2)c1=O)NCc1ccccc1Cl
13%	COc1cc(C2C(C(=O)Nc3ccccc3)=C(C)Nc3nnnn32)cc(OC)c1OC (stereo not drawn)
-1%	Cc1ccc(Cl)cc1Nc1nn2c(=O)c3ccc(C(=O)N4CCCC(C)C4)cc3nc2s1 (stereo not drawn)
-1%	CCOC(=O)C1CCC(CN(Cc2ccccc2)S(=O)(=O)c2ccc(Br)cc2)CC1 (stereo not drawn)
-1%	Cc1oc(-c2cccc(Cl)c2)nc1CS(=O)(=O)CC(=O)NCc1ccccc1Cl
-1%	CCc1nnc(SCc2nc(-c3ccccc3)oc2C)c2cc3sccc3n12
-7%	COc1cc(C(=O)Nc2sc3c(c2C(N)=O)CCC(C)C3)cc(OC)c1OC (stereo not drawn)
-7%	CC1=C(C(=O)Nc2cccnc2)C(c2ccccc2)n2nc(SCc3ccccc3F)nc2N1 (stereo not drawn)
0%	O=S(=O)(NCCSc1nnnn1-c1ccccc1)c1ccc(F)cc1
-6%	CCCCCn1c(=O)[nH]c2cc(C(=O)NCc3ccc(OC)cc3)ccc2c1=O
-15%	COc1ccc(-n2c(=O)c3c4c(sc3n(Cc3ccccc3)c2=O)CN(C(C)=O)CC4)cc1OC
9%	O=S(=O)(NCCc1ccc(Cl)cc1)c1ccc(N2CCCCS2(=O)=O)cc1
2%	O=C(Cc1ccc(NC(=O)N2CCCCc3ccccc32)cc1)NCc1cccc(Br)c1
-1%	CCCCSCCCNC(=O)c1cc(-c2cccnc2)nc2ccc(S(=O)(=O)N3CCC(C)CC3)cc12
-14%	COc1ccc(N2CCN(Cc3cccn3-c3nnc(N4CCN(C5CCCCC5)CC4)s3)CC2)cc1
-17%	COC(=O)Cn1c(=NC(=O)c2ccc3c(c2)OCCO3)sc2ccccc21
-4%	CCOc1ccc(NC(=O)Cn2cc(C(=O)c3ccc(C)cc3)c(=O)c3cc4c(cc32)OCO4)cc1
17%	Cc1ccc2occ(CC(=O)Nc3ccc(S(=O)(=O)N4CCCC(C)C4)cc3)c2c1 (stereo not drawn)
3%	Cn1c(=O)c2c(nc(CN3CCN(c4ccccc4F)CC3)n2Cc2ccccc2F)n(C)c1=O

The listing continues.
miR-21 FLuc	SMILES
-1%	Cc1ccc(C(=O)Nc2ccc(S(=O)(=O)N3CCC(c4nc5ccccc5s4)CC3)cc2)cc1
7%	Cc1ccc(C)c(N2CCN(C(=O)Cn3nc(C)c4sc5ccccc5c4c3=O)CC2)c1
-4%	COc1ccccc1CNC(=O)c1cn(C)c2ccc(S(=O)(=O)N3CCC(C)CC3)cc2c1=O
5%	Cc1cccc(N2CCN(c3c(CN4CCCC4)c(=O)oc4ccccc34)CC2)c1C
20%	COc1ccc(OC)c(NC(=O)Cn2cc(C(=O)c3cccs3)c3ccccc32)c1
-6%	COC(=O)c1ccccc1NC(=O)Cn1c(=O)n(CCCC(=O)NCc2ccccc2Cl)c(=O)c2ccccc21
2%	Clc1ccc(-c2nnn3c2nc(NC2CCCCC2)c2ccccc23)cc1
-2%	Cn1c(=O)c(=O)n(C)c2cc(C(=O)NCc3ccccc3Cl)ccc21
-25%	N#Cc1ccccc1S(=O)(=O)N1CCCC(c2nc3c(nnn3Cc3cccc(Cl)c3)c(=O)[nH]2)C1 (stereo not drawn)
-1%	CCCS(=O)(=O)c1ncc(Cl)c(C(=O)Nc2c(C(=O)c3ccccc3)oc3ccccc23)n1
?	COCCCNC(=O)C1CCCN(c2nn3cc(-c4ccc(C)cc4)nc3s2)C1 (stereo not drawn)
